miR-21 FLuc: miR-21 reporter, rising signal | HeLa miR-21 FLuc reporter, luciferase, 48 h | Potency, µM (series often up to 38.3 µM), for inactives: top-dose reporter change, positive = more light | 340,000 tested, under 10 active | AID 2288; active = well fitted rising curve with a large enough effect; inconclusive = small, poorly fitted or top-dose-only effect; inactive = no such curve, though single readings can be large or run the other way;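 further: % of control where 0% means no effect; miR-21 action dims this reporter so a rising signal means less miR-21 action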
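Luminescence from a firefly luciferase reporter carrying a miR-21 binding site downstream, stably expressed under a CMV promoter in HeLa cells that make miR-21 endogenously, reports miRNA modulation after 48 h compound exposure up to approximately 40uM final.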
GLA inh pH 4.5: inhibitors of human alpha-galactosidase A at pH 4.5; 230,000 tested, under 10 active; AID 1467; purified enzyme, 4-MU-alpha-Gal fluorescence, pH 4.5; activity change, negative = inhibition, % at 105 µM; inconclusive = small, poorly fitted or top-dose-only inhibition, or a rising curve; inactive = flat fitted curve, though single readings scatter; no compound was filed as active;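 further: 0% = full activity with enzyme and -100% = basal without enzyme; dose as in the result columns while the protocol names 77 µM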
Rango complex inh: inhibitors of Rango-importin beta complex formation. Q14974. 340,000 tested, 0.031% active. AID 540263. Potency, µM (doses to about 92.2 µM), inactives show at the highest dose inhibition of complex formation. Rango CFP/YFP FRET sensor + importin beta, 45 min; active = rising FRET ratio curve, often small or poorly fitted; inconclusive = mostly compound fluorescence or quenching in the first reads; inactive = flat curves in all reads;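 further: potency means the concentration at half of the fitted maximal effect; 0% = DMSO wells and 100% = buffer wells lacking importin beta; nearly all actives have a fitted effect of over 15% in size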
Target sequence (Q14974 whole entry, looked up): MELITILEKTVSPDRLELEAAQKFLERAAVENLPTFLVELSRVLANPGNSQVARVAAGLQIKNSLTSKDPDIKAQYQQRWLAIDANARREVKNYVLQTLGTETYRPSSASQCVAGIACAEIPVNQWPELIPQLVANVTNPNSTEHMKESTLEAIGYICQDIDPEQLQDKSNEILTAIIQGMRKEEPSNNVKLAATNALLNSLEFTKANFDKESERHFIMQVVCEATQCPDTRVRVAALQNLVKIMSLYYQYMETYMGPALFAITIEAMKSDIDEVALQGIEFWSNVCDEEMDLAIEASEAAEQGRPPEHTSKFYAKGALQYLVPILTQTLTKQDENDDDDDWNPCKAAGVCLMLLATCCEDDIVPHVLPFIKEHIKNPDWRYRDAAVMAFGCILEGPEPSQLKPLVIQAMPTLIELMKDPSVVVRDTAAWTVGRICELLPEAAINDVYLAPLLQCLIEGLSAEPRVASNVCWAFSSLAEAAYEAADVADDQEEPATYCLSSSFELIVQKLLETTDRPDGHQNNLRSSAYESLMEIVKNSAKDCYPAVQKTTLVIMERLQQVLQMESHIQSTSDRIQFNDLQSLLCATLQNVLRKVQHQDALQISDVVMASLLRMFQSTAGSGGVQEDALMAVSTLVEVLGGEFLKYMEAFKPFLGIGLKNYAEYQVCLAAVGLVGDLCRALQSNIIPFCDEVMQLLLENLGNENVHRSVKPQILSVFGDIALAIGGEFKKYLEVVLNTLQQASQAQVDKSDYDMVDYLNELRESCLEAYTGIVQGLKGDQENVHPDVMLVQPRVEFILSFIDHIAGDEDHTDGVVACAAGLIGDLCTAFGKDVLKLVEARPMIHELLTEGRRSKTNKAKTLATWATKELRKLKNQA
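Inhibition scored from the CFP 486 nm/YFP 530 nm FRET ratio 45 min after adding 0.125 microM importin beta to 50 nM Rango biosensor preincubated 5 min with compound (room temperature, PBS with DTT, Tween-20, BSA). No-importin wells as positive control.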
Rango release inh: inhibition of RanGTP-driven Rango-importin beta dissociation; AID 540253; 340,000 tested, 0.071% active; Potency, µM (titrated, usually from 46.1 µM), without a hit: at the highest dose activity change, negative = inhibition; Biochemical FRET Rango-importin beta, RanGTP-induced dissociation; active means falling FRET ratio curve, often poorly fitted, with flat reads before Ran was added; inconclusive means other falling curves, or compound fluorescence or quenching; inactive means flat or rising ratio curve;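 further: potency means the concentration at half of the fitted maximal effect; % of control where 0% means no effect; nearly all actives have a fitted effect of over 45% in size; -100% = wells without RanGTP and RCC1; the record marks most hits as doubtful in a second field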
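FRET read at 45 min, room temperature: inhibitors block the CFP/YFP signal rise when RanGTP (0.6 uM Ran, 2 mM GTP, 0.2 uM RCC1) frees Rango (0.1 uM) from importin beta (0.25 uM). Pre-read after 5 min compound exposure flags interference.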
* = called active by the depositor; ? = inconclusive; . = not tested or not shown; & = joins results of further samples; [ ] = another dose, or the depositor's remark.

Order of values: Rango release inh, miR-21 FLuc, Rango complex inh, GLA inh pH 4.5
> NS(=O)(=O)c1cccc(NS(=O)(=O)c2cccc(C(F)(F)F)c2)c1
→ 12.2%, -0.2%, 1.1%, -2.0
> CC1(C)CC(NCc2ccccc2)CCO1 (stereo unspecified)
→ -3.0%, -5.8%, 4.4%, -8.4
> COc1c(S(=O)(=O)NCCN2CCOCC2)ccc(Cl)c1Cl
→ -14.0%, -1.7%, ?, -1.7
> CCOC(=O)c1sc2cc([N+](=O)[O-])cc(SCC(C)C)c2c1N
→ ?, 1.0%, 15.9%, 4.1
> Cc1cc(C(=O)CSc2nc(N)cc(=O)[nH]2)ccc1F
→ -1.1%, -3.4%, 4.2%, .
> CCCCc1ccc(NC(=S)NCCc2ccc(F)cc2)cc1
→ 15.2%, -1.7%, 1.4%, -10.6
> CCN1CCCC(OC(=O)C(c2ccccc2)c2ccccc2)C1 (stereo unspecified)
→ -0.5%, ., -1.9%, -3.6
> CC(C)c1ccc(CN(C)C(=O)c2ccc(S(=O)(=O)NCc3ccco3)cc2)cc1
→ -1.2%, ., -2.2%, .
> Nc1nc2ccc(Oc3ccccc3)cc2s1
→ 15.1%, -50.9%, -1.0%, -9.8
> CCn1c(SCC(=O)Nc2nnc(C)s2)nnc1-c1ccco1
→ 1.4%, 0.9%, -0.3%, -5.9
> Cn1c(=O)n(C)c2cc(C(=O)Nc3ccc(Br)cc3)ccc21
→ ?, -7.2%, 3.8%, .
> Cc1cccc(OC(=O)CCN2C(=O)C3C4C=CC(C5CC45)C3C2=O)c1C (stereo unspecified)
→ 7.8%, -1.2%, -1.6%, -3.6
> Cc1oc2c(c1C(=O)NCc1cc(C(=O)O)co1)CCCC2
→ -1.9%, -7.2%, -0.2%, 2.1
> Cc1cc(C)n(CCc2nc(-c3ccc(C(C)(C)C)cc3)cs2)n1
→ -9.5%, -6.4%, -2.3%, -5.6
> O=C(Nc1ccc(Br)cc1Cl)c1ccc(OCC2CCCO2)cc1 (stereo unspecified)
→ 0.1%, ., -0.1%, .
> COc1ccc(NC(=O)COC(=O)C2CC2)cc1S(=O)(=O)N1CCCCC1
→ -14.5%, ., -4.2%, .
> O=CNCCCc1nc2ccccc2n1Cc1cccc2ccccc12
→ -9.9%, -4.5%, -2.9%, -1.6
> Clc1cccc(Cl)c1Cn1c(-c2cccnc2Cl)nc2ccccc21
→ 0.9%, 0.4%, ?, 8.2
> Cc1ccc(C(=O)NC(=S)Nc2nc(-c3cccc([N+](=O)[O-])c3)cs2)c(Cl)c1
→ 0.0%, 1.5%, 0.5%, -4.3
> C=CCOC(=O)C1C(=O)CC(C)(O)C(C(=O)OCC=C)C1c1ccc(OCC)cc1 (stereo unspecified)
→ -4.7%, -2.6%, -1.8%, -6.9
> CCCCN(CCCC)CC(O)COc1ccc(Br)cc1 (stereo unspecified)
→ 9.9%, -2.9%, 1.1%, -13.4
> CC(C)[C@H](NC(=O)c1ccc([N+](=O)[O-])cc1Cl)C(=O)N1CCN(C/C=C/c2ccccc2)CC1
→ 1.7%, ., 0.3%, .
> CCCCCC(=O)Nc1cc2[nH]c(=O)cc(COC)c2cc1C
→ -21.4%, -2.2%, -3.5%, -0.8
> c1ccc(-c2nc(C3CCCCC3)no2)cc1
→ 0.3%, -7.1%, -0.3%, -1.6
> NNC(=O)c1ccc(COc2ccccc2)cc1
→ 14.2%, -11.8%, -3.2%, 3.2
> O=C(CSC(=S)N1CCOCC1)Nc1nc(=O)c2ccccc2s1
→ ., -21.3%, ., -0.3
> O=C(OCCCc1ccncc1)c1ccc(S(=O)(=O)N2CCOCC2)cc1
→ 31.4%, -4.3%, 2.5%, 5.0
> CC(C)(C)CC(=O)Nc1nnc(C(F)(F)F)s1
→ -1.5%, -4.4%, -0.6%, 3.0
> COc1cc(C2Nc3ccccc3C(=O)N2NS(C)(=O)=O)ccc1O (stereo unspecified)
→ -18.1%, 0.2%, 1.9%, -1.1
> O=C(O)CC(NCc1ccco1)C(=O)Nc1cccc(O)c1 (stereo unspecified)
→ -4.1%, 2.2%, 0.5%, 3.9
> CN(C)CCNC(=O)C1CC(=O)N(c2ccc(F)c(Cl)c2)C1 (stereo unspecified)
→ -6.8%, -3.6%, 2.2%, -1.8
> CC(C)N1CCN(Cc2nc3ccccc3s2)CC1CCO (stereo unspecified)
→ 7.3%, -9.5%, -1.9%, 1.1
> Oc1ccc(/C=N/Nc2cc(N3CCOCC3)nc(N3CCOCC3)n2)cc1O
→ -11.2%, -12.2%, -1.3%, -3.1
> COc1ccccc1C(=O)NC(=O)COC(=O)/C(=C/c1ccccc1)NC(C)=O
→ -1.3%, -4.7%, -2.4%, .
> CC1CN(c2ncnc3c2c(-c2ccccc2)cn3-c2ccc(F)cc2)CC(C)O1 (stereo unspecified)
→ 0.0%, 19.6%, -3.3%, 4.0
> O=C(Nc1ccc(F)cc1F)c1ccc(-n2cccn2)c([N+](=O)[O-])c1
→ 5.8%, -18.5%, -0.6%, 4.3
> CN(CC(=O)Nc1ccc(Cl)c(C(F)(F)F)c1)C(=O)c1ccc2c(c1)NC(=O)CS2
→ 11.9%, ., 0.7%, .
> O=C1C=C(c2cc3ccccc3s2)C[C@@H](c2ccc3c(c2)OCO3)C1
→ 5.9%, ., 0.9%, .
> Cc1ccc2nc(Nc3nc(-c4ccccc4)cc(=O)[nH]3)nc(C)c2c1
→ 2.1%, -1.0%, -0.8%, 3.5
> O=C(CN1C(=O)NC2(CCCC2)C1=O)Nc1cc(Cl)ccc1N1CCCCC1
→ 0.6%, -7.4%, -3.7%, .
> CCCCCCC[C@@H](C/C=C/CCC(=O)N(C)C/C(=C/Cl)C/C(=C\C(=O)N1CC(OC)=CC1=O)OC)OC
→ -1.4%, ., -4.3%, .
> COc1ccc(Sc2cnn(-c3ccccc3)c(=O)c2Cl)cc1
→ -21.0%, -0.5%, -1.6%, -7.0
> CCC1(CC)NC(=O)N(CC(=O)OC(C)C(=O)Nc2ccc(NC(C)=O)cc2)C1=O (stereo unspecified)
→ 4.8%, ., -4.4%, .
> O=C(NCc1ccco1)c1c(F)cccc1Cl
→ 0.8%, -2.3%, -4.5%, -4.4
> COC(=O)C1=C(C(=O)OC)C2(OC1c1ccc(Br)cc1)C(=O)c1ccccc1C2=O (stereo unspecified)
→ ?, -4.9%, ?, -8.5
> O=C(CSc1nc2ccccc2[nH]1)N/N=C/c1ccco1
→ -6.2%, -12.9%, -1.2%, .
> COc1ccc(OCc2nn3c(-c4ccccn4)nnc3s2)cc1
→ 19.4%, -15.3%, 3.1%, 6.5
> CCCC(NCC(O)COc1ccc(-c2ccccc2)cc1)c1ccccc1 (stereo unspecified)
→ 16.2%, 6.6%, -3.4%, -3.1
> Cc1ccc(NNC(=O)c2ccno2)cc1Cl
→ -11.3%, 16.5%, -2.7%, -5.4
> CC(C)CCNC(=O)Cc1ccccc1[N+](=O)[O-]
→ -9.9%, -9.5%, 7.1%, 0.3

Part of the list above with just Rango release inh.
Molecule	Rango release inh
O=C(CSc1nc2ccccc2[nH]1)N/N=C/c1ccco1	-6.2%
COc1ccc(OCc2nn3c(-c4ccccn4)nnc3s2)cc1	19.4%

The listing continues:
Order of values: Rango release inh, miR-21 FLuc, Rango complex inh, GLA inh pH 4.5
> CCCOC(=O)CSc1nc(N)c(C#N)c(CC)c1C#N
→ -3.4%, -7.3%, -0.6%, -2.4
> COc1ccccc1C(=O)NC(=O)COC(=O)c1ccc(C)o1
→ 6.7%, ., 0.1%, .
> COc1ccc(-n2nnnc2-c2cnc3cc4c(cc3c2C)OCO4)cc1
→ 0.4%, -5.8%, -0.4%, 5.7
> CCOC(=O)C1=C(N)OC2=C(C(=O)CCC2)C1c1cccs1 (stereo unspecified)
→ 16.8%, -9.3%, -4.4%, 7.6
> O=C(OCc1cc([N+](=O)[O-])cc2c1OCOC2)c1cccnc1SC(F)F
→ -9.9%, ., 0.4%, .
> CCN(C1CCS(=O)(=O)C1)S(=O)(=O)c1ccc(Cl)s1 (stereo unspecified)
→ 6.0%, ., -2.3%, .
> COc1n[nH]c(C(=O)Nc2cc(Cl)ccc2Cl)c1[N+](=O)[O-]
→ 6.4%, -0.5%, -2.8%, 3.4
> CCC(=O)Nc1ccc(Cl)c(NC(=O)c2cccnc2)c1
→ -21.0%, -2.8%, 0.8%, -4.0
> O=C(Nc1c(-c2cccs2)nc2ccccn12)c1ccc2ccccc2c1
→ ., -19.8%, ., -3.8
> O=C(Nc1ccc(CN2CCOCC2)cc1)c1ccc(-c2ccc(Br)cc2)o1
→ -5.9%, 29.9%, -0.2%, -8.5

The final 6 compounds of the section above come first, to join the parts:
Order of values: Rango release inh, miR-21 FLuc, Rango complex inh, GLA inh pH 4.5
> O=C(OCc1cc([N+](=O)[O-])cc2c1OCOC2)c1cccnc1SC(F)F
→ -9.9%, ., 0.4%, .
> CCN(C1CCS(=O)(=O)C1)S(=O)(=O)c1ccc(Cl)s1 (stereo unspecified)
→ 6.0%, ., -2.3%, .
> COc1n[nH]c(C(=O)Nc2cc(Cl)ccc2Cl)c1[N+](=O)[O-]
→ 6.4%, -0.5%, -2.8%, 3.4
> CCC(=O)Nc1ccc(Cl)c(NC(=O)c2cccnc2)c1
→ -21.0%, -2.8%, 0.8%, -4.0
> O=C(Nc1c(-c2cccs2)nc2ccccn12)c1ccc2ccccc2c1
→ ., -19.8%, ., -3.8
> O=C(Nc1ccc(CN2CCOCC2)cc1)c1ccc(-c2ccc(Br)cc2)o1
→ -5.9%, 29.9%, -0.2%, -8.5
> COc1cccc(NC(=S)NNC(=O)c2ccccc2OC(F)F)c1
→ -2.7%, -17.5%, -2.1%, -6.6
> CCN(CC)C(=O)CSc1nc2cc3c(cc2c(=O)n1CCCC(=O)NCc1ccc(OC)cc1)OCO3
→ -3.1%, 0.3%&10.2%, 0.3%, -2.1
> CCCc1cc(=O)[nH]c(SCc2ccccc2)n1
→ 15.5%, -15.0%, 0.9%, -4.0
> O=C(COC(=O)c1ccco1)Nc1ccc(Cl)cn1
→ -3.8%, ., 0.2%, .
> CN(C(=O)C1CCN(c2ncnc3c2nc2n3CCCCC2)CC1)C1CCCCC1
→ 38.9%, 9.4%, 0.8%, .
> O=C(Nc1cc(S(=O)(=O)N2CCCCC2)ccc1O)c1ccccc1NS(=O)(=O)c1ccc(F)cc1
→ 0.9%&-6.4%, 1.2%, 0.1%&-1.9%, -1.1
> COc1ccc(Cc2n[nH]c(=O)c3ccccc23)cc1OC
→ 1.0%, -21.1%, 1.7%, 8.1
> Cc1ccc(CN2CCN(Cc3cccc(C)n3)CC2CCO)cc1 (stereo unspecified)
→ 0.4%, -0.1%, -1.5%, 10.9
> O=C(N/N=C\c1cccnc1)C1c2ccccc2Oc2ccccc21
→ 1.4%, 1.0%, 1.1%, -19.1
> CCOC(=O)c1c(C)oc2c1cc(O)c1ccccc12
→ 4.2%, -60.0%, -2.5%, -13.4
> CCOc1ccc(/C=C2\SC(=S)N(CCCC(=O)NCCCN3CCOCC3)C2=O)cc1
→ -0.9%, ?, 0.0%, .
> CCC(C)NC(=O)C(=O)NCc1ccncc1 (stereo unspecified)
→ 0.2%, -0.1%, ?, 5.1
> COc1ccc(C(=O)COC(=O)c2cnc(C)cn2)c(OC)c1
→ 5.7%, ., 2.6%, .
> Cc1ccc2nc(NC(=O)CN3C(=O)NC4(CCCC4)C3=O)sc2c1
→ -14.4%, ., -1.1%, .
> Cc1nc(N2CCOCC2)[nH]c(=O)c1C
→ 0.9%, -0.7%, -1.7%, -7.4[21.1 µM]
> COc1ccccc1NC(=O)C(=O)NCc1ccncc1
→ 4.2%, -8.0%, 0.9%, 1.5
> CNCc1ccccc1Sc1cccc2ccccc12
→ 2.5%, 16.9%, 0.0%, -0.2

Some of the compounds tested, so the mix of outcomes need not match the whole.
